Screens deposited in PubChem BioAssay by National Center for Advancing Translational Sciences (NCATS).
miR-21 FLuc = qHTS Assay for Modulators of miRNAs and/orActivators of miR-21; 340,000 tested, under 10 active; Potency, µM (titrated, usually from 38.3 µM), without a hit: at the highest dose reporter change, positive = more light; AID 2288, 2010; HeLa miR-21 FLuc reporter, luciferase, 48 h; active = well fitted rising curve with a large enough effect; inconclusive = small, poorly fitted or top-dose-only effect; inactive = no such curve, though single readings can be large or run the other way;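 note: % of control where 0% means no effect; miR-21 action dims this reporter so a rising signal means less miR-21 action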
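Using DMEM plus 10% FBS, HeLa miR-21-FLuc cells are incubated with test compounds (final up to about 40uM) for 48 hours; firefly luciferase signal is then imaged following reagent-mediated lysis.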
Rango complex inh = qHTS Assay for Inhibitors of Rango (Ran-regulated importin-beta cargo) - Importin beta complex formation | hit rate 0.031% among 340,000 | Importin subunit beta-1 (Homo sapiens), Q14974 | Potency, µM (top dose mostly 92.2 µM), without a hit: at the top dose inhibition of complex formation | AID 540263, 2011 | Rango CFP/YFP FRET sensor + importin beta, 45 min; active = rising FRET ratio curve, often small or poorly fitted; inconclusive = mostly compound fluorescence or quenching in the first reads; inactive = flat curves in all reads;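 note: potency is the fitted concentration of half-maximal effect; 0% = DMSO wells and 100% = buffer wells lacking importin beta; nearly all actives have a fitted effect of over 15% in size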
Target sequence (Q14974 whole entry, looked up): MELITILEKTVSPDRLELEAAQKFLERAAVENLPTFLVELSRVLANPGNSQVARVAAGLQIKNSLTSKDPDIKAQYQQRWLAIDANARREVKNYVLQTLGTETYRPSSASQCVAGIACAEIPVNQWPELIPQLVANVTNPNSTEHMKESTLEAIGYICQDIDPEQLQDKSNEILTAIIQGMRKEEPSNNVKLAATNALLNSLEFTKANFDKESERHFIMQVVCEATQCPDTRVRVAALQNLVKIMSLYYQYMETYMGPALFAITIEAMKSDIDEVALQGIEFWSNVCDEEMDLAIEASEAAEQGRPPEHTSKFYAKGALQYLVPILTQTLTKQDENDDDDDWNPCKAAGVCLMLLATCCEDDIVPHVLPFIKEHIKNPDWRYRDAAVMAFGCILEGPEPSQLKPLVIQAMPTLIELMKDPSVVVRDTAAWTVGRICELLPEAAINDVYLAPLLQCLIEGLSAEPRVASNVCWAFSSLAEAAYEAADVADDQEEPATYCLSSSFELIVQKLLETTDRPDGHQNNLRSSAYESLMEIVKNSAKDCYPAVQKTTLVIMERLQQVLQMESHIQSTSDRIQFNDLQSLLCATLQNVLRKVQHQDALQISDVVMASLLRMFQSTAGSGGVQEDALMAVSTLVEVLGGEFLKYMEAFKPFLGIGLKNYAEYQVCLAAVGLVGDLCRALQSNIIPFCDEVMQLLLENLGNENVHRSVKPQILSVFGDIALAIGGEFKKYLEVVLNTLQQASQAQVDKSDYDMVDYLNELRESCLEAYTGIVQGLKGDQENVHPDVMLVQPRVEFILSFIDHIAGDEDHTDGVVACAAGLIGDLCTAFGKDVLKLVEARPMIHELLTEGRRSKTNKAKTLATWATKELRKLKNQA
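Inhibition scored from the CFP 486 nm/YFP 530 nm FRET ratio 45 min after adding 0.125 microM importin beta to 50 nM Rango biosensor preincubated 5 min with compound (room temperature, PBS with DTT, Tween-20, BSA). No-importin wells as positive control.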
Rango release inh = qHTS Assay for Inhibitors of RanGTP induced Rango (Ran-regulated importin-beta cargo) - Importin beta complex dissociation | Snurportin-1 (Homo sapiens) + GTP-binding nuclear protein Ran (Homo sapiens) + Importin … | Biochemical FRET Rango-importin beta, RanGTP-induced dissociation | Potency, µM (doses to about 46.1 µM), for inactives: top-dose activity change, negative = inhibition | hit rate 0.071% among 340,000; active means falling FRET ratio curve, often poorly fitted, with flat reads before Ran was added; inconclusive means other falling curves, or compound fluorescence or quenching; inactive means flat or rising ratio curve;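 note: potency is the fitted concentration of half-maximal effect; % of control where 0% means no effect; nearly all actives have a fitted effect of over 45% in size; -100% = wells without RanGTP and RCC1; the record marks most hits as doubtful in a second field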
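Two FRET readings bracket the reaction: one 5 min after compound meets Rango–importin beta, another 45 min after RanGTP-RCC1 (0.6 uM Ran, 0.2 uM RCC1, 2 mM GTP) is added. Only the second defines inhibition.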
GLA inh pH 4.5 = qHTS Assay for Inhibitors of Human alpha-Galactosidase at pH 4.5; Alpha-galactosidase A (Homo sapiens), P06280; purified enzyme, 4-MU-alpha-Gal fluorescence, pH 4.5; activity change, negative = inhibition, % at 105 µM; 230,000 tested, under 10 active; inconclusive = small, poorly fitted or top-dose-only inhibition, or a rising curve; inactive = flat fitted curve, though single readings scatter; no compound was filed as active;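 note: 0% = full activity with enzyme and -100% = basal without enzyme; dose as in the result columns while the protocol names 77 µM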
* marks the source's active call; other numbers are inactive results; ? = inconclusive; . = not tested or not shown; & = joins results of further samples. This is a subset. The share of hits here may be higher or lower than overall.

miR-21 FLuc	Rango complex inh	Rango release inh	GLA inh pH 4.5	molecule
-5.7%	-0.2%	-15.0%	.	CCOC(=O)c1ccc(NC(=S)N2CCN(CCO)CC2)cc1
9.1%	1.5%	-5.8%	.	O=C(CS(=O)(=O)Nc1ccc(F)cc1Cl)Nc1ccc(F)cc1Cl
0.7%	0.0%	11.3%	-4.9	Cc1ccc(C)c(/C=N/NC(=S)NCCc2ccccc2)c1
.	3.1%	0.1%	.	COc1ccc(OC)c(S(=O)(=O)N2CCCC(C(=O)N3CCC(C(N)=O)CC3)C2)c1 (stereo not drawn)
-2.2%	2.6%	-0.2%	6.6	Cc1cc(C)c(NC(=O)C2CCCN2C)c(C)c1 (stereo not drawn)
-12.4%	-2.4%	-12.7%	8.0	CNC(=O)/C(C#N)=C/c1c(F)cccc1Cl
-63.9%	2.5%	18.2%	-1.8	Cc1ccc(OCc2nc(-c3ccccc3)no2)cc1
-6.0%	-0.6%	-13.8%	.	CN(c1ccccc1)S(=O)(=O)c1cccc2ccccc12

Looked up above:
Cc1ccc(OCc2nc(-c3ccccc3)no2)cc1 | Rango release inh = 18.2%
COc1ccc(OC)c(S(=O)(=O)N2CCCC(C(=O)N3CCC(C(N)=O)CC3)C2)c1 (stereo not drawn) | Rango release inh = 0.1%
CN(c1ccccc1)S(=O)(=O)c1cccc2ccccc12 | Rango complex inh = -0.6%
O=C(CS(=O)(=O)Nc1ccc(F)cc1Cl)Nc1ccc(F)cc1Cl | Rango release inh = -5.8%
CCOC(=O)c1ccc(NC(=S)N2CCN(CCO)CC2)cc1 | miR-21 FLuc = -5.7%
Cc1cc(C)c(NC(=O)C2CCCN2C)c(C)c1 (stereo not drawn) | Rango complex inh = 2.6%

Later entries:
miR-21 FLuc	Rango complex inh	Rango release inh	GLA inh pH 4.5	molecule
0.2%	1.4%	5.4%	3.2	O=C(Nc1cnn(Cc2ccc(Cl)c(Cl)c2)c1)c1nc2ncccn2n1
0.9%	-1.5%	20.1%	3.2	CN(/N=C/c1ccc(O)cc1O)c1nc(-c2ccccc2)cc(-c2ccccc2)n1
0.8%	0.1%	-4.8%	3.8	CCCCn1c(SCC(=O)N2CCCCC2)nc2cc(S(N)(=O)=O)ccc21
-4.3%	4.4%	32.7%	8.2	CN(C)c1ccc(/C=C/C(=O)c2ccc(C(C)(C)C)cc2)cc1[N+](=O)[O-]
1.2%	-4.0%	13.6%	-6.0	CCCCn1c(=O)n(Cc2cccc(F)c2)c(=O)c2c1ncn2Cc1ccco1
6.0%&1.9%	-1.0%	-1.2%	-6.9	CC1=C(C#N)C(NC(=O)c2cccc(Cl)c2)(C(F)(F)F)C(=O)N1 (stereo not drawn)
-3.1%	-1.0%	4.0%	-2.7	COc1ccc(CC2(CO)CCN(Cc3cccn3-c3ccccn3)CC2)cc1
-2.4%&1.5%	-1.4%	9.8%	.	COc1cc2c(=O)n(CCC(=O)NCC3CCCO3)c(=O)n(CC(=O)Nc3ccc(F)cc3)c2cc1OC (stereo not drawn)
-12.1%	0.2%	-3.1%	-12.2	C=C(C)COc1ccc(-c2[nH]ncc2Oc2ccccc2OC)c(O)c1
-43.4%	2.1%	-3.3%	-2.4	O=C(N=C1N=C2C=CC=CN2Cc2ccccc21)c1ccc(S(=O)(=O)N2CCCC2)cc1
-3.2%	-1.9%	1.9%	.	CN(C(=O)CC1C(=O)NCCN1Cc1ccc(F)cc1Cl)C1CCCCC1 (stereo not drawn)
13.7%	-0.7%	-13.2%	-23.8	CC1CCCCN1C(=O)CN1CCC(c2nc3ccc(Cl)cc3[nH]2)CC1 (stereo not drawn)
-13.4%	3.4%	0.4%	8.3	CCOC(=O)c1cc(N)cc([N+](=O)[O-])c1
.	-0.6%	21.8%	.	C[C@@H]1CN([C@@H](C)CO)C(=O)c2cccc(NC(=O)Nc3ccccc3)c2O[C@H]1CN(C)C(=O)Nc1cccc2ccccc12
-5.7%	0.6%	-6.9%	-8.2	Cc1nc2sc(C(c3ccc(Cl)cc3)N3CC(C)OC(C)C3)c(O)n2n1 (stereo not drawn)
-6.9%	-0.2%	3.9%	-1.4	C=CCOc1c(CNc2ncn[nH]2)cccc1OCC
-14.2%	-3.1%	6.8%	-9.2	COc1cc(CN(C)CCc2ccccc2)ccc1OCc1ccccc1
0.2%	-5.0%	0.1%	0.9	COc1ccc(/C=C(/C#N)S(=O)(=O)c2ccc(C)cc2)cc1
5.3%	?	-5.8%	-6.2	Cc1ccc(NS(=O)(=O)c2cccc(C(=O)N/N=C/c3c(C)nn(-c4ccccc4)c3N3CCCC3)c2)c(C)c1
-37.5%	?	-7.7%	-7.5	O=C(/C=C/c1cccs1)Nc1nncs1
-7.0%	-1.1%	0.8%	12.9	O=C(c1cccs1)N1CCN(S(=O)(=O)Cc2ccccc2)CC1
-1.5%	-6.1%	10.3%	0.5	COc1ccc(NC(=O)C(C)N(c2ccc(C)cc2)S(C)(=O)=O)cc1 (stereo not drawn)
-5.3%	-0.6%	5.5%	.	COc1ccccc1CN1CC(C(=O)NCc2cccc(Cl)c2)CCC1=O (stereo not drawn)
-13.7%	0.4%	18.6%	1.0	CC1(C)CC(c2nc(-c3ccccc3)cs2)CCS1 (stereo not drawn)
-5.8%	-4.3%	?	-6.0	COc1ccc2c(c1)c1nc3ccccc3nc1n2CCn1c(=O)oc2ccccc21
-2.8%	0.1%	12.0%	0.2	COc1cccc(-n2cc(C(=O)O)c3ccccc3c2=O)c1
-31.2%	3.4%	-3.3%	2.0	Clc1ccc(/C=N/Nc2ncnc3ccccc23)cc1Cl
-6.0%	?	12.6%	1.4	COCCn1c(SCC(=O)c2ccc3c(c2)OCCO3)nnc1C(C)C
0.4%	-2.8%	2.0%	.	COc1cccc(CNc2ccc3[nH]c(=O)[nH]c3c2)c1OCc1ccccc1F
-0.5%	-1.6%	4.2%	.	Cc1ccc(S(=O)(=O)NNC(=S)NCC2CCCO2)cc1 (stereo not drawn)
.	-0.4%	-13.9%	.	CCOc1ccc(/C=N/NC(=O)c2ccc(F)cc2)cc1CN1CC2CC(C1)c1cccc(=O)n1C2 (stereo not drawn)
-3.8%	-2.6%	-7.3%	.	O=C(N/N=C/c1ccc2ncccc2c1)c1cccc([N+](=O)[O-])c1

Reprinted at random: 2 compounds from above.
miR-21 FLuc	Rango complex inh	Rango release inh	GLA inh pH 4.5	molecule
-2.8%	0.1%	12.0%	0.2	COc1cccc(-n2cc(C(=O)O)c3ccccc3c2=O)c1
-0.5%	-1.6%	4.2%	.	Cc1ccc(S(=O)(=O)NNC(=S)NCC2CCCO2)cc1 (stereo not drawn)

New compounds follow:
miR-21 FLuc	Rango complex inh	Rango release inh	GLA inh pH 4.5	molecule
-3.5%	3.7%	-8.2%	-3.1	CCc1cccc(CC)c1NC(=O)COc1ccccc1C(=O)c1cc(C#N)c(=O)n(C2CCCCC2)c1
-62.0%	3.3%	14.4%	0.6	CC(C)(C)c1ccc(NC(=O)c2ccccc2)c([N+](=O)[O-])c1
-1.7%	1.2%	-9.9%	2.6	CC(=O)Nc1cc(C(N)=O)c(Cl)cc1Cl
4.8%	-1.0%	-11.7%	1.2	Cc1ccc(NS(=O)(=O)c2cc3c4c(cccc4c2)C(=O)NC3=O)cc1
-4.0%	-1.3%	2.2%	0.7	O=c1oc2cc([N+](=O)[O-])ccc2nc1/C=C(\O)c1cccc(Br)c1
-2.2%	-2.3%	-13.9%	-1.4	CS(=O)(=O)c1ccc(C(=O)NCC(c2ccco2)N2CCCCC2)cc1 (stereo not drawn)
-3.5%	0.3%	3.1%	1.7	CC(=O)Nc1ccc(-c2ccccc2)s1
-33.6%	0.1%	-9.4%	.	CC1CCCN(C(=O)CNC(=O)c2ccco2)C1 (stereo not drawn)
-11.5%	-3.5%	3.1%	-10.6	CCc1nc2ccccc2c(C(=O)OCC(=O)NCc2ccco2)c1C
-10.4%	2.8%	0.1%	-2.8	O=C1C2ON(c3ccccc3)C(c3ccncc3)C2C(=O)N1c1ccccc1 (stereo not drawn)
-24.5%	3.7%	-5.9%	.	O=C(Nc1ccc2c(c1)OCCO2)C(=O)NC1CC1
19.9%	-2.9%	-8.2%	.	CCOC(=O)C1(CCOc2ccccc2)CCN(Cc2cc(OC)ccc2OC)CC1
-15.4%	-3.4%	-6.1%	7.9	CN(C)c1ccc(N2C(=O)CSC2=S)cc1
-2.3%	2.7%	3.1%	0.1	COc1ccc(CNc2nc(NCc3ccc(OC)cc3)n(C(C)=O)n2)cc1
-65.0%	-3.3%	1.9%	.	Cc1ccc2oc(C(=O)N(C)Cc3ccon3)c(C)c2c1
-3.8%	-0.1%	16.2%	-0.1	CCCOc1ccc(C2C3=C(Nc4nc(N)[nH]c(=O)c42)c2ccccc2C3=O)cc1 (stereo not drawn)
-1.0%	0.7%	-1.3%	-1.3	COCCCNC(=S)N(Cc1ccccc1)Cc1ccccc1
-0.5%	6.6%	-7.5%	2.4	Cc1ccc([N+](=O)[O-])cc1NC(=O)CN(C(=O)c1ccc(Cl)cc1)C1CCCCC1
-1.3%	-0.7%	-16.2%	11.8	CCN(CC)C(=O)Oc1ccc(Cl)c2cccnc12
?	?	?	-10.2	CCN(CC)c1ccc(/C=N/Nc2nc3ccccc3[nH]2)c(O)c1
.	0.4%	1.4%	.	O=C(CSc1ccccc1F)NCC(c1cccs1)N1CCOCC1 (stereo not drawn)
?	-0.6%	-2.9%	-23.9	COc1ccc(NC(=O)/C(Cl)=C(/Cl)S(=O)Cc2ccccc2)cn1 (stereo not drawn)
-5.3%	2.3%	2.5%	3.8	Cn1c(N)c(C(=O)c2ccc(Cl)cc2)c(=O)n(C)c1=O
6.4%	0.0%	-0.9%	1.9	COc1ccc(CNC(=O)C2=CCN(S(=O)(=O)c3ccc(C)cc3)CC2)cc1
-10.8%	-2.0%	-6.1%	5.9	N#Cc1cnn(Cc2ccccc2)c1/N=C/N1CCOCC1
-17.0%	-2.4%	-3.1%	7.4	Cc1cc(C)c(S(=O)(=O)N(C)CC(=O)NCc2ccccn2)c(C)c1
-12.9%	-0.5%	-1.7%	-2.9	CC(C)NC(=O)C(=O)c1cn(C)c2ccccc12
-33.7%	-3.3%	?	0.2	COc1cccc(C(=O)c2cc3ccc(O)cc3oc2=O)c1
-0.3%	.	.	-5.0	c1ccc(-c2cc(-c3nc(-c4cccnc4)no3)c3ccccc3n2)cc1
0.7%&19.2%	2.1%	6.8%	.	CCOC(=O)c1c(S(=O)(=O)N2CCCC(C(=O)Nc3cccc(C)n3)C2)c(C)n(C)c1C (stereo not drawn)
-0.2%	-1.7%	-1.8%	-0.4	Cc1ccc(C(=O)NCC(=O)NCC(=O)OCc2ccc(F)cc2)cc1
.	?	11.6µM*	.	CC(=O)N1CCN(c2ccc(NCc3ccc(-c4cccc(Cl)c4)o3)cc2)CC1
0.2%	2.1%	?	.	Cc1nnc(NC(=O)CCn2c(=O)oc3ccc(Cl)cc32)s1
-4.5%	0.9%	-1.3%	6.4	Cc1cc(C)cc(C(=O)N2CCC(C(N)=O)CC2)c1
0.6%	-4.1%	-0.1%	12.9	O=C(CN1CCC(NC(=O)C2CCCCC2)CC1)NCc1ccco1
-5.8%	-1.7%	8.8%	-14.3	COc1ccc(CCC(=O)Nc2cccc(Cl)c2)cc1
-40.0%	-3.7%	13.4%	9.4	CC(=O)Cc1nsc(Nc2ccccc2)n1
2.7%	-1.8%	1.3%	-8.3	COc1ccc(CCNC(=O)COc2ccc(N(C)S(=O)(=O)c3ccc(C)cc3)cc2)cc1
0.3%	1.5%	13.2%	-5.6	COc1ccc(NC(=O)CNC(=O)c2ccc([N+](=O)[O-])cc2)cc1
.	2.7%	0.9%	.	CCOC(=O)C1=C(COC(=O)c2ccc(Br)c(S(=O)(=O)N3CCOCC3)c2)NC(=O)NC1C (stereo not drawn)
-17.8%	-3.7%	-0.3%	6.9	CCOc1ccccc1-c1nc(C(N)=O)c2[nH]c(=O)n(-c3ccccc3)c2n1
